# TRPV1 PAM: human TRPV1 potentiation; Q8NER1; TRPV1-expressing cells, Fluo-8 calcium influx, capsaicin EC20 potentiation; host cell line not named in the record; control for the full effect not named in the record; potentiation, % at 8.33 µM; 320,000 tested, 0.02% active; active means potentiation above 80%; inconclusive means 30% to 80%; inactive means below 30%; further: 0% is about no effect
#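 Cells expressing TRPV1 were dye-loaded with Fluo-8 and read kinetically: 10 s baseline, 3 min after compound (agonist portion), then 2 min after EC20 capsaicin (allosteric enhancer portion). Calcium-bound dye fluorescence at 480/520 nm.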
# Sfp PPTase inh: inhibitors of Bacillus subtilis Sfp phosphopantetheinyl transferase | Biochemical Sfp PPTase activity, qHTS | Potency, µM, for inactives: max response, negative = inhibition, most hits filed as inhibitors | 310,000 tested, 3.5% active; active means well fitted inhibition curve with a large enough effect; inconclusive means small, poorly fitted or top-dose-only effect, or another doubt; inactive means no such curve, though single readings can be large or run the other way;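 further: the enzyme is Sfp with the accession as filed and its product quenches rhodamine fluorescence; potency means the concentration at half of the fitted maximal effect; 0% = enzyme reaction without inhibitor and -100% = no enzyme wells; top concentration of the series not given in the record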
#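 Reaction rates are the 30-min fluorescence difference (ex 525, em 598 nm) in wells containing 15 nM Sfp, 5 uM rhodamine-CoA and 12.5 uM BHQ-2-YbbR at pH 7.6 with 10 mM MgCl2.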
# Menin MLL FP FL: menin-MLL binding inhibition, fluorescein peptide. Fluorescence polarization, fluorescein-MLL peptide displacement from menin. FP activity change, % at 61.4 µM. 290,000 tested, under 10 active. AID 1766; inconclusive = falling polarisation curve, or a change in total fluorescence; inactive = total fluorescence flat and polarisation flat or rising; no compound was filed as active; the % refers to the polarisation; negative = inhibition;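 further: % of control where 0% means no effect; inhibitors lower the polarisation; unlabelled MLL peptide was the positive control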
# D2 PAM: potentiates the human D2 dopamine receptor allosterically; P14416; DiscoveRx D2 beta-arrestin cells, luminescence, 90 min; 100% = 57 uM dopamine signal; potentiation, % (no concentration beside the values); 360,000 tested, 0.23% active; active = potentiation of 50% or more; inconclusive = 30% to 50%; inactive = 30% or less;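 further: compound concentration not given in the record; tested on top of an EC20 dose of dopamine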
# Target sequence (P14416 whole entry, looked up): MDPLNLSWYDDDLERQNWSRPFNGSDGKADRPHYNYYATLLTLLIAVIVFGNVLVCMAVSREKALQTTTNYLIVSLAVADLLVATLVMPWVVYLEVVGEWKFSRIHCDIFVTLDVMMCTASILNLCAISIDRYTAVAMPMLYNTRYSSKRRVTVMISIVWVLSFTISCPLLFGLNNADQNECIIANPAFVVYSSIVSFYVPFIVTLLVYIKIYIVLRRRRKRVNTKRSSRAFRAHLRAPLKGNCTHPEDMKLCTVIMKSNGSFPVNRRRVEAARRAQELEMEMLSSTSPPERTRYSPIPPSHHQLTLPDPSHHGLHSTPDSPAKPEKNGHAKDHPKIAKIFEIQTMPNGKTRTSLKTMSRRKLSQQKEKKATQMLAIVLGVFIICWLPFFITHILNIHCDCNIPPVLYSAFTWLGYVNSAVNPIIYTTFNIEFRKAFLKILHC
#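 D2 cells co-treated with compound plus 50 nM dopamine (EC20) for 90 min at 37 deg C to detect potentiation. Beta-arrestin recruitment was read as enzyme-fragment luminescence after 1 h at ambient temperature. Full response was set by 57 uM dopamine.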
# gsp antag: antagonizes gsp, the McCune-Albright syndrome mutation; gsp-mutant cells, cAMP HTRF, 30 min; control for the full effect not named in the record; Potency, µM (doses to about 76.9 µM), without a hit: top-dose activity change, negative = inhibition, usual class: inhibitors; AID 624288; 340,000 tested, 0.4% active; active = falling curve of any shape with a large fitted effect; inconclusive = falling curve, mostly with a smaller effect; inactive = flat or rising curve; cell line not stated here;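 further: intracellular cAMP measured with PDE inhibitor Ro 20-1724 present during compound exposure; potency means the concentration at half of the fitted maximal effect; on the % scale 0 is the no-effect control and ±100 the full control effect; nearly all actives have a fitted effect of over 65% in size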
#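 Cells, 2000/well, grown 16–24 h in DMEM 10% FBS with 0.5 mg/ml G418, then compounds plus […] (300 uM addition stock), 30 min at 37C. cAMP read by HTRF (cAMP-d2 and anti-cAMP antibody-K in lysis buffer) after 30 min RT.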
# gsp ag: gsp mutant agonism | gsp mutant cells, cAMP HTRF, 30 min; control for the full effect not named in the record | Potency, µM (highest dose often 76.9 µM), for inactives: at the top dose activation (cAMP increase), actives largely listed as activators | 340,000 tested, 0.13% active | AID 624287; active = well fitted activation curve with a large enough effect; inconclusive = small, poorly fitted or top-dose-only effect, or another doubt; inactive = no such curve, though single readings can be large or run the other way; cell line not stated here;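 further: phosphodiesterase inhibitor Ro 20-1724 added with compounds to block cAMP breakdown; potency means the concentration at half of the fitted maximal effect; nearly all actives have a fitted effect of over 60% in size; about a fifth of the inactives were tested at one dose only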
#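 Cells in DMEM/10% FBS with G418 were pretreated with compounds in DMSO plus […] (300 uM stock) for 30 min at 37C. cAMP was measured by HTRF (cAMP-d2 plus anti-cAMP antibody-K) after 30 min at room temperature.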
# ClpP mod: qHTS Assay for Activators of ClpP | ATP-dependent Clp protease proteolytic subunit (Bacillus subtilis (strain 168)), P80244 | purified B. subtilis ClpP, FRET peptide cleavage, 20 min | Potency, µM (top dose mostly 57.5 µM), for inactives: top-dose activity change, negative = active | 340,000 tested, 1.9% active | AID 651965, 2013; active = well fitted falling curve with a large enough effect; inconclusive = small, poorly fitted or top-dose-only effect; inactive = no such curve, though single readings can be large or run the other way; further: potency means the concentration at half of the fitted maximal effect; the source files actives as falling curves though it sought activators and does not explain the sign; nearly all actives have a fitted effect of over 65% in size; many hits overshoot -100%
# Target sequence (P80244 whole entry, looked up): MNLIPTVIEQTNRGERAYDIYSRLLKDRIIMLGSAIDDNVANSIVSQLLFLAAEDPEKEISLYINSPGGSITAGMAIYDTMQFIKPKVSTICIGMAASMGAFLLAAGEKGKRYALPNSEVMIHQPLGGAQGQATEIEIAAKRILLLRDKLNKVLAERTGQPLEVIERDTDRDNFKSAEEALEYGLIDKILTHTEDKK
#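 ClpP 10 microg/mL final, pH 8 Tris/KCl buffer with BSA, glycerol, Tween-20; compound pinned in; FRET-FV substrate; RT 20 min; Ex320/Em430; ΔFRET vs ADEP 5.8 microM, DMSO, no enzyme.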
# An asterisk follows results filed as active; u = inconclusive; x = no result given; [ ] = dose if it differs, or a comment.
(1) Cc1cccc(C(=O)OCC(=O)NCCNC(=O)COC(=O)c2cccc(C)c2C)c1C
(2) Cc1ccc2ncnc(Nc3cccc(C(=O)O)c3)c2c1
(3) O=C(O)c1ccc(S(=O)(=O)Nc2ccc(O)c(Sc3nc4ccccc4s3)c2)cc1
(4) CC(C)c1ccc(NC(=O)C2CC(=O)N(C3CCCC3)C2)cc1 (stereo not given)
(5) C/C(=N\O)C1(C)N(O)C(C)(C)C(c2ccc(F)cc2)=[N+]1[O-] (stereo not given)
(6) COC(=O)C(CC(C)C)NC(=O)c1ccc([N+](=O)[O-])cc1 (stereo not given)
(7) CN(C)S(=O)(=O)c1ccc(N2CCCC2)c(C(=O)Nc2nc(-c3ccc(F)cc3)cs2)c1
(8) CCOC(=O)C1=C(COC(=O)c2ccc(OC)c(S(=O)(=O)N3CCOCC3)c2)NC(=O)NC1C (stereo not given)
assay / compound | 1 | 2 | 3 | 4 | 5 | 6 | 7 | 8
Menin MLL FP FL | x | -1.3 | 4.0 | 1.7 | -0.4 | 0.1 | 5.9 | x
ClpP mod | 0.8% | x | x | x | -0.5% | 0.6% | u | 2.3%
gsp antag | 12.7% | 5.2% | 12.2% | 5.3% | 7.2% | 4.8% | -9.5% | 9.1%
gsp ag | -12.1% | 6.4%[15.4 µM] | -1.6%[15.4 µM] | -4.0% | u | -24.1% | 0.2% | 3.2%
TRPV1 PAM | -7.1 | 26.2 | -3.3 | -7.9 | 2.8 | -5.4 | 18.8 | x
Sfp PPTase inh | 15.2% | 6.2% | -20.6% | 10.7% | -11.0% | 6.2% | 4.6% | x
D2 PAM | -18.4 | -8.3 | 8.5 | -6.0 | -9.3 | -0.3 | -4.9 | 3.6

# By substructure, the entries above with two or more sulfur atoms.
(3) O=C(O)c1ccc(S(=O)(=O)Nc2ccc(O)c(Sc3nc4ccccc4s3)c2)cc1
(7) CN(C)S(=O)(=O)c1ccc(N2CCCC2)c(C(=O)Nc2nc(-c3ccc(F)cc3)cs2)c1
assay / compound | 3 | 7
Menin MLL FP FL | 4.0 | 5.9
ClpP mod | x | u
gsp antag | 12.2% | -9.5%
gsp ag | -1.6%[15.4 µM] | 0.2%
TRPV1 PAM | -3.3 | 18.8
Sfp PPTase inh | -20.6% | 4.6%
D2 PAM | 8.5 | -4.9

# (list continues)
(9) COc1ccc(-c2csc(N3CCSCC3)n2)cc1
(10) CCc1ccc(NC(=O)C(C)OC(=O)c2cccc(S(=O)(=O)N3CCc4ccccc4C3)c2)cc1 (stereo not given)
(11) Cc1cc(Cl)c2oc(C(=O)NCC(C)(C)N3CCOCC3)c(C)c2c1
(12) OC(COc1ccc(Cl)cc1)CSc1ccccn1 (stereo not given)
(13) Cc1ccc(Cl)cc1NC(=S)N(Cc1ccco1)C(C)c1cccs1 (stereo not given)
(14) O=C(CSc1nnc(-c2cccs2)n1Cc1ccccc1)N1CCc2ccccc2C1
(15) Cc1cc(C(=O)Nc2nc(C)c(C(=O)N(C)C)s2)ccc1[N+](=O)[O-]
assay / compound | 9 | 10 | 11 | 12 | 13 | 14 | 15
Menin MLL FP FL | 8.8 | 3.3 | -1.8 | 0.7 | 0.4 | -0.3 | 1.6
ClpP mod | x | x | 1.2% | -1.9% | -0.9% | -5.1% | 1.1%
gsp antag | -13.1% | -2.9% | -21.2% | -2.2% | -19.3% | -12.5% | 8.7%
gsp ag | 6.7%[15.4 µM] | 7.6% | u | 8.3% | -10.7% | -2.0% | 10.0%
TRPV1 PAM | -23.2 | 3.0 | -17.7 | 6.6 | 2.9 | 13.6 | 1.3
Sfp PPTase inh | -20.0% | 89.1µM* | -11.8% | -2.9% | -14.1% | -4.5% | -1.7%
D2 PAM | -7.2 | -5.3 | -24.4 | -8.7 | -8.3 | -6.4 | -18.0

# Values in list order from above.
# TRPV1 PAM, compounds 10–13: 3.0, -17.7, 6.6, 2.9
# gsp ag, compounds 10–13: 7.6%, u, 8.3%, -10.7%

# Some values from the list:
# Cc1cc(Cl)c2oc(C(=O)NCC(C)(C)N3CCOCC3)c(C)c2c1 in ClpP mod has 1.2%
# Cc1ccc(Cl)cc1NC(=S)N(Cc1ccco1)C(C)c1cccs1 (stereo not given) in Sfp PPTase inh has -14.1%

# Some of the entries so far, bar-delimited:
entry | molecule | Menin MLL FP FL | ClpP mod | gsp antag | gsp ag | TRPV1 PAM | Sfp PPTase inh | D2 PAM
9 | COc1ccc(-c2csc(N3CCSCC3)n2)cc1 | 8.8 | x | -13.1% | 6.7%[15.4 µM] | -23.2 | -20.0% | -7.2
10 | CCc1ccc(NC(=O)C(C)OC(=O)c2cccc(S(=O)(=O)N3CCc4ccccc4C3)c2)cc1 (stereo not given) | 3.3 | x | -2.9% | 7.6% | 3.0 | 89.1µM* | -5.3

# Screening results from PubChem BioAssay.
